Compound activity (PubChem)
TRPV1 PAM: human TRPV1 potentiation; Q8NER1; actives 0.02% (n = 320,000); potentiation, % at 8.33 µM; TRPV1-expressing cells, Fluo-8 calcium influx, capsaicin EC20 potentiation; host cell line not named in the record; control for the full effect not named in the record; AID 540277; active means potentiation above 80%; inconclusive means 30% to 80%; inactive means below 30%; note: 0% is about no effect
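TRPV1-expressing cells were cultured overnight at 35.5C and loaded with Fluo-8 calcium dye for 40 to 90 min at room temperature. After a 10 s baseline, compound was added and calcium influx was read kinetically for 3 min (ex 480/em 520 nm).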
CtBP-E1A blk: CtBP/E1A binding inhibition; actives 0.49% (n = 340,000); AID 651724; AlphaScreen GST-E1A/His-CtBP binding, 1536-well; stronger effect = lower value; control for the full effect not named in the record; activity change, % (test concentration not listed); in the data active means activity change below about -65%; inconclusive means about -30% to -65%; inactive means above about -30%; note: % is set by controls: 0 for no effect and ±100 for the full control effect; compound concentration not given in the record
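Homogeneous bead-based format: GST-tagged E1A captured on glutathione donor beads, His-tagged CtBP on nickel acceptor beads; compounds precede bead addition by 2 h at 37 °C.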
D2 agonist: human D2 receptor agonism in beta-arrestin assay. P14416. DiscoveRx PathHunter D2 beta-arrestin, luminescence, 90 min; 100% = 57 uM dopamine signal. activation, % (concentration not given with the values). actives 0.084% (n = 360,000); in the data active = activation above about 40%; inconclusive = about 15% to 40%; inactive = below about 15%; note: compound concentration not given in the record; the text of the record calls up to 30% inactive
Target sequence (P14416 whole entry, looked up): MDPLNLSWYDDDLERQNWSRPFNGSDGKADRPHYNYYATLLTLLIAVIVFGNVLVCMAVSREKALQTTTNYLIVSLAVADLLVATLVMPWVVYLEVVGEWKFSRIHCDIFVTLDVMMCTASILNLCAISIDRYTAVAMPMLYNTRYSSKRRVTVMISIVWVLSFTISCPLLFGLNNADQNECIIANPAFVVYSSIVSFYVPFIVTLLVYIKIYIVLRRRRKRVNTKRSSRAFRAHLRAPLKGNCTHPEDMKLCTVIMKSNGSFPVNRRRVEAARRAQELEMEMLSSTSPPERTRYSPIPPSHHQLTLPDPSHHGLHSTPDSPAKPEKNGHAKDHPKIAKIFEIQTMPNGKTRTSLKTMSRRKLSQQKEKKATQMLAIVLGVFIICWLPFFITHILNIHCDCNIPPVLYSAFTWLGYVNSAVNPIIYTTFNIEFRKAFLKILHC
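DiscoveRx PathHunter D2 beta-arrestin cells (2,100/well) attached overnight, then compound-stimulated 90 min at 37 C in HBSS/10 mM HEPES/0.1% Tween-20 buffer; beta-galactosidase complementation read by luminescence after 1 h at ambient temperature. Dopamine 57 uM final (EC100) as control.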
Sfp PPTase inh: inhibitors of Bacillus subtilis Sfp phosphopantetheinyl transferase; Q9F4F7; Potency, µM, for inactives: max response, negative = inhibition, usual class: inhibitors; actives 3.5% (n = 310,000); Biochemical Sfp PPTase activity, qHTS; active = well fitted inhibition curve with a large enough effect; inconclusive = small, poorly fitted or top-dose-only effect, or another doubt; inactive = no such curve, though single readings can be large or run the other way;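 note: the enzyme is Sfp with the accession as filed and its product quenches rhodamine fluorescence; potency is the fitted concentration of half-maximal effect; 0% = enzyme reaction without inhibitor and -100% = no enzyme wells; top concentration of the series not given in the record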
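Sfp 15 nM + cpd, 15 min RT; start w/ rhodamine-CoA 5 uM, BHQ-2-YbbR 12.5 uM (final); 50 mM Hepes pH 7.6, 10 mM MgCl2, 0.01% NP-40, 0.01% BSA; read 525/598 nm at 0 and 30 min.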
D2 PAM: potentiates the human D2 dopamine receptor allosterically; P14416; DiscoveRx D2 beta-arrestin cells, luminescence, 90 min; 100% = 57 uM dopamine signal; potentiation, % (test concentration not listed); actives 0.23% (n = 360,000); active = potentiation of 50% or more; inconclusive = 30% to 50%; inactive = 30% or less;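 note: compound concentration not given in the record; tested on top of an EC20 dose of dopamine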
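PathHunter beta-arrestin assay in DiscoveRx D2 cells. Compounds were added with an EC20 of dopamine (50 nM final) for 90 min at 37 deg C. Luminescence was read 1 h after detection reagent, with 57 uM dopamine as the EC100 control.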
Six1-Eya2 inh: blocks human Six1 binding to Eya2. Q15475+O00167. AlphaScreen GST-Six1/His-Eya2 binding, biochemical; stronger effect = lower value; control for the full effect not named in the record. AID 651725. activity change, % (no concentration beside the values). actives 0.56% (n = 360,000); in the data active = activity change below about -65%; inconclusive = about -30% to -65%; inactive = above about -30%; note: % is set by controls: 0 for no effect and ±100 for the full control effect; compound concentration not given in the record
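Six1/Eya2 binding was read as AlphaScreen signal after compounds were pinned into GST-Six1 plus His-tagged Eya2 (5X stock 250/500 nM) in pH 8.0 Tris/NaCl/TCEP buffer, beads added, then incubated 1 h, 37 C, dark.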
PINK1 modulator: modulators of PINK1 expression. PINK1 immunofluorescence, high-content cytometry, 24 h. Potency, µM (series often up to 76.6 µM), for the others: at the top dose activation (PINK1 increase), actives largely listed as activators. actives 0.2% (n = 410,000); active = well fitted activation curve with a large enough effect; inconclusive = small, poorly fitted or top-dose-only effect; inactive = flat fitted curve, though single readings scatter; cell line not stated here;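 note: potency is the fitted concentration of half-maximal effect; % of control where 0% means no effect; nearly all actives have a fitted effect of over 65% in size; a mitochondrial uncoupler was the plate control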
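Readout is PINK1 immunofluorescence, quantified alongside mitochondrial, cell and nuclear markers by laser-scanning microplate cytometry. Cells from a stable line were exposed to compound titrations (5 concentrations) for 24 hours, with CCCP controls.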
* marks the source's active call; other numbers are inactive results; ? = inconclusive; / = not tested or not shown; [ ] = another dose, or the depositor's remark.

entry	mol	TRPV1 PAM	CtBP-E1A blk	D2 agonist	Sfp PPTase inh
1	O=C1CC(c2ccc(F)cc2)Cc2nc(NCc3ccco3)ncc21 (stereo not given)	-9	-1	-1.8	13%
2	COC(=O)c1ccc(/C=N/Nc2nc(-c3ccc(C)cc3)cs2)cc1	7	17	-1.9	-27%
3	O=C1N=c2ccccc2=C1c1sc(NS(=O)(=O)c2ccccc2)nc1O	17	-22	5.4	3%
4	COc1ccccc1C1/C(=C(/O)c2ccc(C)cc2)C(=O)C(=O)N1CCN1CCOCC1 (stereo not given)	1	3	-2.2	17%
5	O=C(Cn1nnc2ccccc2c1=O)NCc1ccco1	4	-2	-2.9	10%
6	CC1Cc2ccccc2N1C(=S)NC(=O)c1ccco1 (stereo not given)	5	1	1.7	40µM*
7	Cc1[nH]c(SCC(=O)Nc2cc(S(C)(=O)=O)ccc2Cl)nc1Cc1ccccc1	-40	-12	6.0	/
8	Cc1cn2c(N)c(C=C3C=C(Cl)C(=O)C(Cl)=C3)c(=O)nc2s1	9	16	-4.0	5%
9	CC(=O)c1cccc(NC(=O)C(CC(C)C)NC(=O)C2CCCCC2)c1 (stereo not given)	7	0	-0.4	-15%
10	COc1ccc(C(=O)Nc2sc(C(=O)N(C)C)c(C)c2C#N)cc1[N+](=O)[O-]	19	-19	0.7	-13%

entry	D2 PAM	Six1-Eya2 inh	PINK1 modulator
1	5	5	15%
2	10	11	3.1%
3	9	-28	-0.1%
4	-2	3	0.7%
5	-22	4	-2.2%
6	-2	5	0.2%
7	1	-12	0.4%
8	-5	2	?
9	-4	0	0.6%
10	-16	-3	0.8%

Continuation.
entry	mol	TRPV1 PAM	CtBP-E1A blk	D2 agonist	Sfp PPTase inh
11	CCOc1ccccc1NC(=S)N1CCN(c2ccc(O)cc2)CC1	-1	/	-4.2	-19%
12	CC1(C)CC(=O)C(C=NCC2CCN(C(=S)Nc3cccc(Cl)c3)CC2)=C(O)C1	-6	1	2.9	11%
13	O=C(CCN1CCOCC1)Nc1ccc2c(c1)N(C(=O)CN1CCOCC1)c1ccccc1CC2	-10	5	0.0	-4%
14	COc1cccc(NC(=O)CN(C)CC(=O)Nc2ccccc2-c2ccccc2)c1	-11	-9	3.5	-28%
15	CCOC(=O)C(O)(CC(=O)Nc1ccc(Cl)cc1Cl)C(F)(F)F (stereo not given)	4	8	0.3	19%
16	CC(C)C(=O)Nc1ccc(C(=O)NNC(=O)c2ccco2)cc1	-4	5	-2.6	-11%
17	CCCCOC(=O)c1ccc(NC(=O)c2nn(C)cc2Br)cc1	-7	3	0.4	5%
18	O=C(CSc1n[nH]c(-c2cccnc2)n1)Nc1ccc([N+](=O)[O-])cc1	5	-2	-1.2	-2%
19	O=C(CCC1CCCC1)NCCS(=O)(=O)N1CCN(c2ccc(F)cc2)CC1	-4	0	-1.8	/
20	Cc1ccc(C(C)C)c(OCC(=O)Nc2ccc3c(c2)nc(CCN2CCCCC2)n3C)c1	14	-10	-1.1	2%

entry	D2 PAM	Six1-Eya2 inh	PINK1 modulator
11	?	-26	0.6%
12	2	-4	0.3%
13	-1	4	-6.4%[38.3 µM]
14	-1	1	0.9%
15	2	2	-1.0%
16	0	5	2.9%[38.3 µM]
17	3	5	-1.3%
18	3	-3	0.9%
19	-9	7	1.3%
20	-39	-3	-1.4%

Continuation.
entry	mol	TRPV1 PAM	CtBP-E1A blk	D2 agonist	Sfp PPTase inh
21	COc1cccc(CNC(=O)[C@@H]2CCCN2C(=O)[C@@H]2CCCN2C(=O)c2cccc(Cl)c2)c1	/	1	/	/
22	O=C(Cn1ncc2c1-c1ccccc1OC2)N1CCN(Cc2ccccc2)CC1	-19	0	-3.1	22%
23	Cc1nn(-c2ccccc2)cc1/C=N/NS(=O)(=O)c1ccccc1	4	5	2.5	2%
24	O=C(CN1CCN(Cc2cccc3ccccc23)CC1)NCCc1ccccc1	6	-3	-0.5	4%
25	COc1cc(NC(=O)c2ccco2)c(OC)cc1NC(=O)CSc1ncc(-c2ccc(F)cc2)[nH]1	-7	11	-0.5	?
26	CSc1ncnc2c1ncn2CCCN1CCN(C(=O)C2CC2)CC1	/	3	1.7	/
27	Cc1nc(NC(C)c2ccccc2)sc1C(=O)Nc1ccccc1 (stereo not given)	5	-21	-4.8	12%
28	CCOC(=O)c1sc(SC)c(C(C)=O)c1C	-9	7	-0.9	5%
29	O=C(O)C1CCCCC1C(=O)NCc1ccc(F)cc1 (stereo not given)	3	-3	-2.8	14%
30	Cc1noc(C)c1COc1ccc(CC(=O)NCCc2ccccc2)cc1	26	2	-2.6	-10%

entry	D2 PAM	Six1-Eya2 inh	PINK1 modulator
21	/	2	0.3%
22	-6	-5	0.7%
23	-8	-5	-1.0%
24	-11	-14	-1.8%
25	2	-2	5.3%[38.3 µM]
26	/	-1	1.6%
27	2	-26	0.1%
28	-8	7	1.7%
29	-7	3	2.8%[38.3 µM]
30	0	1	1.5%

New compounds follow.
entry	mol	TRPV1 PAM	CtBP-E1A blk	D2 agonist	Sfp PPTase inh
31	COc1cc(C(=O)NC(=S)Nc2ccc(Cc3ccncc3)cc2)cc(OC)c1OC	11	2	1.3	-7%
32	COc1ccc(C2CC(=O)Nc3cc(OC)c(OC)cc32)cc1 (stereo not given)	/	0	-1.6	/
33	O=C(NNC1=NCCC1)c1cccc(S(=O)(=O)N2CCCCC2)c1	16	/	-1.2	42%[activator]
34	CCN(C(=O)c1ccc2c(SCC(=O)O)c3c(nc2c1)CCC3)c1cc(Cl)ccc1OC	?	/	-3.7	7%
35	O=C(C1=C[C@H](C2CCCCC2)C[C@H](OCc2ccc(CO)cc2)O1)N1CCOCC1	-11	0	0.1	4%
36	FC(F)(F)c1ccc(Cl)c(NC(=S)N/N=C/c2ccccc2Cl)c1	12	/	-14	10%
37	Cc1c(Cl)cnc(NC(=O)COC(=O)c2cccc(S(=O)(=O)N3CCOCC3)c2)c1Cl	/	-1	-0.9	/
38	CC(C)n1cnc2c(Nc3ccc(F)c(Cl)c3)nc(NCCO)nc21	1	-8	-0.1	20%
39	CC(=O)NCCn1c(SCC(=O)NC2CCCCC2)nc2ccccc2c1=O	-2	-21	-2.0	11%
40	CCCSc1nc2c(c(=O)n(C)c(=O)n2C)n1C	-8	/	-0.2	9%

entry	D2 PAM	Six1-Eya2 inh	PINK1 modulator
31	9	-23	2.0%
32	-1	-3	1.8%
33	-8	8	-0.7%
34	-3	-4	2.0%
35	-22	-2	-0.2%
36	4	4	2.6%
37	-3	9	-0.7%
38	1	-9	0.5%
39	-4	44	-2.7%
40	-14	6	6.2%

Next section
entry	mol	TRPV1 PAM	CtBP-E1A blk	D2 agonist	Sfp PPTase inh
41	C=CCOc1ccc(C2CC(C)=NN2c2ccccc2)cc1 (stereo not given)	-8	-16	-1.9	-21%
42	O=C(CNC(=O)c1ccco1)Nc1ccc(Cl)cc1	4	-18	1.9	0%
43	COc1cccc(/C=N/n2cnnc2)c1OCc1ccccc1	18	2	-4.1	17%
44	COc1cc(OC)c(OC)cc1/C=N/NC(=O)CCc1c(C)n[nH]c1C	12	/	-2.3	6%
45	Cc1ccccc1NC(=O)C1CC(=O)OC12CCOC(C)(C)C2 (stereo not given)	11	19	-5.3	9%
46	CC(C)(C)c1ccc(NC(=O)COC(=O)c2ccc(NS(=O)(=O)c3ccc(F)c(F)c3)cc2)cc1	24	18	3.4	40%[activator]
47	CCCOc1ccc(C(=O)NC2CCSc3ccccc32)cc1 (stereo not given)	-8	0	0.5	19%
48	Cc1ccc(S(=O)(=O)N2c3ccccc3OCC2C(C)(C)C)cc1 (stereo not given)	-6	12	-2.3	-1%
49	O=C(CCCCCNC(=O)N1CCn2c1nc1ccccc12)N[C@H](Cc1ccccc1)C(=O)O	3	-7	-5.7	14%
50	Nc1nc2ccc(Br)cc2o1	/	5	0.4	/

entry	D2 PAM	Six1-Eya2 inh	PINK1 modulator
41	-11	-4	1.8%
42	-5	3	-0.1%
43	2	-1	-1.5%
44	-16	7	1.0%
45	6	5	2.2%
46	22	9	?
47	-4	-6	6.6%
48	-13	9	11%
49	-11	-11	0.0%
50	-4	3	-0.2%

The list goes on:
entry	mol	TRPV1 PAM	CtBP-E1A blk	D2 agonist	Sfp PPTase inh
51	Nc1nc(-c2c[nH]c3ccccc23)cs1	-2	?	-2.6	22µM*
52	Cc1ccccc1NC(NC(=O)OCCn1c([N+](=O)[O-])cnc1C)C(Cl)(Cl)Cl (stereo not given)	3	4	-2.3	12%
53	Cn1cc([N+](=O)[O-])c(C(=O)NCC(=O)O)n1	3	/	0.0	-3%
54	Cc1oc(C(C)(C)C)cc1C(=O)NC(Cc1ccccc1)C(=O)O (stereo not given)	-5	-22	-0.9	20%
55	Cc1cccc(C)c1NC(=O)N1CCC(n2c(=O)[nH]c3ccccc32)CC1	12	1	-2.6	-1%
56	CC[C@]12c3[nH]c4ccccc4c3CCN1C(=O)C(CC(=O)NCCC1=CCCCC1)C[C@@H]2C(=O)N1CCN(C(=O)c2ccco2)CC1 (stereo not given in full)	/	-5	2.1	/
57	CC(=O)OC1CCC2(C)C(CCC3C2CC(OC(C)=O)C2(C)C3C[C@@H]3O[C@]4(CC[C@@H](C)CO4)[C@@H](C)C32)C1 (stereo not given in full)	/	3	3.7	/

entry	D2 PAM	Six1-Eya2 inh	PINK1 modulator
51	1	-30	-0.2%
52	-22	2	0.2%
53	-6	10	0.8%
54	-4	-1	-1.7%
55	-2	6	-1.3%
56	/	-5	-0.2%
57	3	0	0.3%
